SARS PLP yeast: blocks SARS-CoV papain-like protease in a yeast assay; S. cerevisiae expressing SARS-CoV PLpro, growth rescue; control for the full effect not named in the record; Potency, µM (doses to about 32.9 µM), for inactives: at the top dose activity, positive = growth rescue; 330,000 compounds, 0.19% hits; AID 485353; active means well fitted rising curve with a large enough effect; inconclusive means small, poorly fitted or top-dose-only effect; inactive means no such curve, though single readings can be large or run the other way; also: 0% is about no effect; nearly all actives have a fitted effect of over 55% in size; growth read by luminescence after 48 h
Marburg entry inh: inhibitors of Marburg virus binding or cell entry. Marburg virus pseudotyped entry inhibition, cell reporter; control for the full effect not named in the record; about a third of the inactives were read at about 46 µM. Potency, µM (doses to about 37.8 µM), inactives show top-dose activity change, negative = inhibition, most hits filed as inhibitors. 300,000 compounds, 1.8% hits. AID 540276; active = well fitted inhibition curve with a large enough effect; inconclusive = small, poorly fitted or top-dose-only effect, or effect the other way; inactive = flat fitted curve, though single readings scatter; tested in HEK293 cells; about a fifth of its hits are not listed in these tables; also: % is scaled to controls: 0 for no effect and ±100 for the full control effect; luciferase read-out
2A StopGo: FMDV 2A StopGo reporter, luciferase signal. 410,000 compounds, 1.2% hits. Potency, µM (titrated, usually from 57.9 µM), inactives show top-dose signal change, negative = less light. human cells with a luciferase reporter of 2A StopGo recoding; control for the full effect not named in the record. AID 1159524; active = well fitted falling curve with a large enough effect; inconclusive = small, poorly fitted or top-dose-only effect; inactive = no such curve, though single readings can be large or run the other way; tested in HEK293T cells; also: % is scaled to controls: 0 for no effect and ±100 for the full control effect; nearly all actives have a fitted effect of over 45% in size; luciferase light after 4 h
Cruzain Triton: inhibitors of Trypanosoma cruzi cruzain with detergent | P25779 | purified cruzain, Z-FR-AMC fluorescence, 0.01% Triton | Potency, µM, without a hit: max response, negative = inhibition, hits mostly inhibitors | 200,000 compounds, 0.43% hits;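 also: plate controls were neutral wells for no effect and buffer without enzyme for full effect; nearly all actives have a fitted effect of over 40% in size; top concentration of the series not given in the record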
Target sequence (P25779 123-467 limits assumed): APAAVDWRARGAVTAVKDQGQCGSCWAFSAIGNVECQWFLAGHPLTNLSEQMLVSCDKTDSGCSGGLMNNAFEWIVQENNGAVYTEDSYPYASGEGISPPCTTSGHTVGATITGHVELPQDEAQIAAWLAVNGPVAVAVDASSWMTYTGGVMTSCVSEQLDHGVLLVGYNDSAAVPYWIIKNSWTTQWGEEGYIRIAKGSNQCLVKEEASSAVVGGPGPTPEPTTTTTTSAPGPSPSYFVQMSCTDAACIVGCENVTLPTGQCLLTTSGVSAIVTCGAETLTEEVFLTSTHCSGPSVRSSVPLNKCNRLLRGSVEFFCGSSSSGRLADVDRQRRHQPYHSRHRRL
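Purified cruzain (1.5 nM final) was preincubated with compounds for 15 min at room temperature in 100 mM sodium acetate pH 5.5, 5 mM DTT, 0.01% Triton X-100. Reaction started with 2 uM Z-FR-AMC; AMC fluorescence change over 60 s gave activity.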
NS1 inh: blocks influenza NS1 protein function | AID 2326 | S. cerevisiae slowed by influenza A NS1, growth recovery by OD600 | 270,000 compounds, 0.4% hits | Potency, µM (series often up to 46.1 µM), without a hit: top-dose activity, positive = more growth; active means well fitted rising curve with a large enough effect; inconclusive means small, poorly fitted or top-dose-only effect; inactive means no such curve, though single readings can be large or run the other way; also: nearly all actives have a fitted effect of over 50% in size
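Growth recovery, yeast-based: influenza A NS1 expressed in S. cerevisiae causes slow growth, and suppressors are detected by OD600. The parent strain without NS1 is used as positive control.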
LASV entry inh: inhibitors of Lassa virus binding or cell entry; Lassa virus pseudotype entry inhibition, cell reporter; control for the full effect not named in the record; Potency, µM (doses to about 37.9 µM), inactives show top-dose activity change, negative = inhibition, usual class: inhibitors; 300,000 compounds, 1.2% hits; AID 540256; active means well fitted inhibition curve with a large enough effect; inconclusive means small, poorly fitted or top-dose-only effect, or effect the other way; inactive means flat fitted curve, though single readings scatter; tested in HEK293 cells; also: % is scaled to controls: 0 for no effect and ±100 for the full control effect; nearly all actives have a fitted effect of over 50% in size; luciferase read-out
Cruzain noTriton: inhibitors of Trypanosoma cruzi cruzain without detergent; 200,000 compounds, 2.3% hits; P25779; Potency, µM, for the others: max response, negative = inhibition, usual class: inhibitors; purified cruzain, Z-FR-AMC fluorescence, no detergent;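 also: plate controls were enzyme without inhibitor for no effect and buffer without enzyme for full effect; nearly all actives have a fitted effect of over 40% in size; top concentration of the series not given in the record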
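Purified cruzain at 1.5 nM, pre-incubated 15 min with compound at room temperature in 100 mM sodium acetate pH 5.5, 5 mM DTT, 0.00005% Triton X-100. Reaction started with 2 uM Z-FR-AMC; AMC fluorescence increase over 60 s gives rate.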
RE007 growth inh: less growth of the S. pombe RE007 Vpr strain | S. pombe RE007 Vpr strain, BacTiter-Glo ATP luminescence, 24 h; control for the full effect not named in the record | Potency, µM (top dose mostly 92.2 µM), inactives show at the highest dose activity change, negative = less growth | 360,000 compounds, 0.21% hits | AID 651644; active = well fitted falling curve with a large enough effect; inconclusive = small, poorly fitted or top-dose-only effect; inactive = no such curve, though single readings can be large or run the other way;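 also: % is scaled to controls: 0 for no effect and ±100 for the full control effect; nearly all actives have a fitted effect of over 50% in size; the assay follows cell death caused by Vpr and the record does not say whether a fall means rescue or toxicity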
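Fission yeast RE007 carrying one integrated HIV-1 vpr copy, seeded at OD 0.01 in PMG+AL medium with 23 nL pinned compound. Grown 24 h at 30 degrees; viability read by BacTiter-Glo luminescence after 5 min.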
* = called active by the depositor; ? = inconclusive; / = no result given; [ ] = remark or other dose. Unless noted, calls follow the shape of the dose curve; as a rule, active = well fitted curve in the direction sought with a large enough effect; inconclusive = small, poorly fitted or top-dose-only effect, or another doubt; inactive = no such curve, though single readings can be large; an effect the other way counts as inactive or inconclusive. Potency is read from the fitted curve at half-maximal effect. Compounds were not picked by outcome; 4.7% or so of the library scored in one or more.

SMILES	SARS PLP yeast	Marburg entry inh	2A StopGo	Cruzain Triton	NS1 inh	LASV entry inh	Cruzain noTriton	RE007 growth inh
CCOc1ccc(NCc2nc3ccccc3n2CCOc2ccccc2)cc1	-84%	?	-23%	-5.6%	18%	?	-18%	?
COP(=S)(OC)c1c(C)nn(CCC#N)c1NC(=O)c1ccc(Cl)cc1	1%	-25%[46.1 µM]	2%	/	-8%	5%	/	-15%
CCc1cc(C(=O)Nc2ncccc2O)sc1C	0%	/	-30%	/	-98%	/	/	?
Cc1nc2ccc(Nc3ccncc3)cc2s1	-1%	/	-7%	/	0%	/	/	5%
CC1CCN(c2ccc(N3C(=O)C4CCCCC4C3=O)cc2[N+](=O)[O-])CC1 (stereo unspecified)	-15%	27%	10%	-6.6%	9%	-8%	-7%	7%
NC(=O)C1CCN(c2oc(-c3cccs3)nc2S(=O)(=O)c2ccc(Br)cc2)CC1	0%	-4%[46.1 µM]	24%	/	/	-18%[46.1 µM]	/	-9%
O=c1[nH]n(-c2ccc(F)cc2)c2ncccc12	-12%	6%	1%	0.2%	-98%	5%	7%	-28%
CC(=O)N(c1ccc(N(C(C)=O)S(=O)(=O)c2ccccc2)cc1)S(=O)(=O)c1ccccc1	-1%	1%[46.1 µM]	1%	/	-9%	?	/	5%
Cc1cc(C(=O)COC(=O)CNC(=O)c2ccc(F)cc2)c(C)n1Cc1ccco1	-17%	0%	44%[activator]	14µM*	-12%	?	16µM*	2%
Cc1cc(C(=O)NCc2ccc(Cl)cc2)n(-c2ccccc2)n1	-2%	/	?	/	-6%	/	/	0%
COc1ccc(C)cc1S(=O)(=O)Nc1cccc(Cl)c1Cl	-7%	-15%	63%[activator]	-7.8%	-13%	5%	-7%	-19%
Cc1ccc(C(=O)C2=C(O)C(=O)N(c3ncccn3)C2c2ccc(Cl)cc2)o1 (stereo unspecified)	-25%	11%	?	-5.7%	23%	23%	-9%	-6%
CCCCNc1cc(F)nc(N)n1	-1%	-1%	-14%	/	/	-3%	/	1%
Cc1cc(NC(=O)CCl)no1	15%	?	?	/	5%	?	/	17%
Cc1nn(Cc2ccccc2)c(C)c1C(=O)OCC(=O)c1cc(C)n(CC(F)(F)F)c1C	3%	?	0%	-3.5%	?	1.8µM*	11%	-13%
Cc1cccc(NC(=O)CCCN2C(=O)C3CC=CCC3C2=O)c1 (stereo unspecified)	-2%	/	-11%	/	6%	/	/	13%
O=C(CCCN1C(=O)c2cccnc2Oc2ccc(Cl)cc21)N1CCCCC1	0%	/	14%	/	3%	/	/	14%
Cc1ccc(NC(=O)c2cnc3cc(C)ccn3c2=O)c(C)c1	/	8%[46.1 µM]	57%[activator]	-0.5%	/	/	-5%	/
Cc1cccc(Nc2cc(C)c3c(O)cccc3n2)c1C	-25%	?	4%	-13%	-21%	?	?	1%
COc1ccc(NC(=O)NCCCCc2ccccc2)cc1OC	3%	?	-13%	/	-5%	?	/	2%
CCN(CC(=O)Nc1cc(Cl)ccc1C)C(=O)CCOc1ccc(C)cc1	2%	?	-7%	/	/	5%[46.1 µM]	/	7%
Cc1ccccc1C1C(C#N)=C2N=C(N)c3c(sc4c3CCCCC4)N2C2=C1C(=O)CC(C)(C)C2 (stereo unspecified)	0%	?	0%	2.3%	?	?	?	-6%
Cc1ccc(S(=O)(=O)N2CCOCC2)cc1NC(=O)c1cc([N+](=O)[O-])ccc1N1CCOCC1	-4%	?	-16%	/	/	-20%	/	0%
CCN=C(Nc1ccc2c(c1)OCO2)SC1CC(=O)N(c2ccccc2F)C1=O (stereo unspecified)	4%	13%	-7%	-4.1%	-16%	-17%	-8%	17%
CCCc1n[nH]c(=O)c2c1nnn2Cc1ccccc1F	-2%	1%[46.1 µM]	-20%	/	2%	-15%[46.1 µM]	/	11%
Cc1nnc(NCCc2ccccc2)[nH]c1=O	5%	-3%	13%	2.8%	?	-10%	-2%	-5%
Cc1cccc[n+]1CC(=O)Nc1cccc([N+](=O)[O-])c1	1%	/	-13%	/	-2%	/	/	6%
Cc1cccc(C)c1NC(=O)CSc1ncnc2[nH]ncc12	4%	1%	-17%	/	/	1%	/	-23%
CCOc1ccc(C2=C(C=Nc3c(C)n(C)n(-c4ccccc4)c3=O)C(c3ccc(F)cc3)c3ccccc3O2)cc1 (stereo unspecified)	-9%	-13%	0%	4.4%	-3%	-17%	3.2µM*	-3%
COCCCNC(=O)CS(=O)Cc1nc(-c2cccc(C)c2)oc1C (stereo unspecified)	/	6%[46.1 µM]	-8%	-1.4%	/	?	-4%	/
S=C(Nc1ccc(Nc2ccccc2)cc1)N1CCN(c2ncccn2)CC1	0%	-1%[14.2 µM]	-7%	/	0%	1%	/	-1%
COC(=O)c1ccc(CN2C(=O)NC3(CCC(C)CC3)C2=O)o1 (stereo unspecified)	-5%	7%	0%	2.1%	-5%	1%	-3%	3%
Cc1ccc(C(=O)NCC(=O)NCC(c2cccs2)N2CCOCC2)cc1C (stereo unspecified)	1%	4%	7%	/	/	0%	/	10%
O=C(C1CCCN(S(=O)(=O)c2ccc(F)cc2)C1)N1CCCCC1 (stereo unspecified)	6%	?	-18%	/	17%	-2%[46.1 µM]	/	-23%
COc1ccc(C)cc1NC(=O)c1cccn(Cc2cccc([N+](=O)[O-])c2)c1=O	/	/	?	-0.4%	/	0%[46.1 µM]	7%	/
COc1ccccc1C1N=C(c2ccccc2C)NO1 (stereo unspecified)	-1%	?	58%[activator]	/	-1%	10%[46.1 µM]	/	-10%
O=C(c1ccccc1)c1ccc2nc(Nc3ccccc3)c3nncn3c2c1	-1%	/	-25%	/	1%	/	/	3%
CCOc1c2ccc(C(=O)NCCc3ccc(C)cc3)cc2nn1CC	-6%	/	-13%	1.8%	-78%	/	-1%	4%
Cc1ccc2nc(-c3ccncc3)cc(C(=O)NCCc3ccc(F)cc3)c2c1	0%	-38%[46.1 µM]	-29%	/	-1%	-22%	/	2%
C[C@H]1CN=C(Nc2ccccc2)N1CC1CCCCCC1	3%	/	-9%	/	-12%	/	/	-2%
CC(C(=O)Nc1ccc(C#N)cc1)N(C)CC(=O)Nc1cccc(F)c1 (stereo unspecified)	-1%	/	-11%	/	-4%	/	/	?
CC1CCN(S(=O)(=O)c2ccc3[nH]c(=O)[nH]c3c2)CC1	0%	10%[46.1 µM]	20%	/	1%	10%[46.1 µM]	/	-19%
CCN(CC)c1ccc(NC(=O)OC)cc1	1%	?	0%	3.6%	-1%	?	-11%	-15%
OCc1nc2ccccc2n1Cc1ccc(Cl)cc1	1%	-29%	-12%	/	1%	-21%	/	-3%
COc1ccc(C(=O)O)cc1F	3%	19%	1%	2.7%	3%	15%	2%	-22%
Cc1cccn2c(=O)c(C(=O)NCc3ccccc3Cl)c(O)nc12	/	21%[46.1 µM]	-22%	-1.9%	/	/	-5%	/
O=C(Nc1cccc(Cl)c1)N1CC2CCCN2c2ccccc21 (stereo unspecified)	/	/	-25%	-1.1%	/	?	20%	/
COc1ccc(-c2cc(=O)oc3cc(OC(C)C(=O)NCCCn4ccnc4)ccc23)cc1 (stereo unspecified)	-5%	/	-10%	/	-4%	/	/	1%
O=C(Nc1ccccc1C(=O)O)c1ccc(N2C(=O)C3CC=CCC3C2=O)cc1 (stereo unspecified)	0%	-7%	-29%	/	8%	-13%	/	1%
Cn1nc(C(C)(C)C)cc1C(=O)NCc1cc(F)cc2c1OCOC2	0%	/	13µM*	/	-5%	/	/	-3%
C=C(C)C1CC=C(C)/C(=N\NC(=O)CNc2ccccc2OC)C1 (stereo unspecified)	8%	-1%	10%	-3.6%	17%	1%	-26%	-13%
Cc1ccccc1NC(=O)N1C2CCCC1CC(NC(=O)C1CC1)C2 (stereo unspecified)	2%	3%	1%	-1.7%	-12%	?	-13%	6%
O=S(=O)(Nc1cccc2cccnc12)c1ccc(S(=O)(=O)N2CCCC2)cc1	10%	?	/	-0.6%	-13%	8.2µM*	-1%	0%
Cn1c(=O)c2c(ncn2CCCl)n(C)c1=O	5%	/	-22%	/	3%	/	/	-5%
COc1ccc(C)cc1NC(=O)C1CC(=O)OC12CCCCC2 (stereo unspecified)	-2%	2%	3%	6.2%	?	-7%	5%	2%
COc1cccc(-c2nnc(SCc3ccccn3)n2C)c1	1%	24%[46.1 µM]	72%[activator]	2.9%	5%	?	-8%	8%
CCCCC(Nc1ncnc2ccccc12)C(=O)O (stereo unspecified)	-4%	-10%	-4%	5.9%	8%	5%	-12%	10%
O=C(NN1C(=O)/C(=C/C=C/c2ccco2)SC1=S)c1ccccc1O	-6%	-5%	-5%	/	-7%	-14%	/	?
COc1ccc(N2Cc3cccc(C(=O)Nc4ccc(F)cc4)c3C2=O)cc1	/	/	-22%	-9.3%	/	0%[46.1 µM]	-2%	/

Entries of single compounds as entered above. Order of screens: SARS PLP yeast	Marburg entry inh	2A StopGo	Cruzain Triton	NS1 inh	LASV entry inh	Cruzain noTriton	RE007 growth inh
O=C(NN1C(=O)/C(=C/C=C/c2ccco2)SC1=S)c1ccccc1O is entered as -6%	-5%	-5%	/	-7%	-14%	/	?
O=S(=O)(Nc1cccc2cccnc12)c1ccc(S(=O)(=O)N2CCCC2)cc1 is entered as 10%	?	/	-0.6%	-13%	8.2µM*	-1%	0%
O=C(Nc1ccccc1C(=O)O)c1ccc(N2C(=O)C3CC=CCC3C2=O)cc1 (stereo unspecified) is entered as 0%	-7%	-29%	/	8%	-13%	/	1%
COc1ccc(N2Cc3cccc(C(=O)Nc4ccc(F)cc4)c3C2=O)cc1 is entered as /	/	-22%	-9.3%	/	0%[46.1 µM]	-2%	/
CCCCC(Nc1ncnc2ccccc12)C(=O)O (stereo unspecified) is entered as -4%	-10%	-4%	5.9%	8%	5%	-12%	10%

Bioassay records deposited in PubChem by National Center for Advancing Translational Sciences (NCATS).
